AF4-AF9 inh – MLL-AF4/AF9 protein interaction inhibition; AlphaScreen, biotin-AF4 peptide binding to FLAG-AF9; hit rate 0.47% among 350,000; P42568; inhibition, % at 10 µM;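 active = every replicate reaching a set inhibition limit, whatever the replicate mean, cut at about 25% in these data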;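 also: 0% = plate neutral control median and 100% = total signal loss; the record names both 10 and 1 µM as test concentration; the first replicate is given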
Target sequence (P42568 whole entry, looked up): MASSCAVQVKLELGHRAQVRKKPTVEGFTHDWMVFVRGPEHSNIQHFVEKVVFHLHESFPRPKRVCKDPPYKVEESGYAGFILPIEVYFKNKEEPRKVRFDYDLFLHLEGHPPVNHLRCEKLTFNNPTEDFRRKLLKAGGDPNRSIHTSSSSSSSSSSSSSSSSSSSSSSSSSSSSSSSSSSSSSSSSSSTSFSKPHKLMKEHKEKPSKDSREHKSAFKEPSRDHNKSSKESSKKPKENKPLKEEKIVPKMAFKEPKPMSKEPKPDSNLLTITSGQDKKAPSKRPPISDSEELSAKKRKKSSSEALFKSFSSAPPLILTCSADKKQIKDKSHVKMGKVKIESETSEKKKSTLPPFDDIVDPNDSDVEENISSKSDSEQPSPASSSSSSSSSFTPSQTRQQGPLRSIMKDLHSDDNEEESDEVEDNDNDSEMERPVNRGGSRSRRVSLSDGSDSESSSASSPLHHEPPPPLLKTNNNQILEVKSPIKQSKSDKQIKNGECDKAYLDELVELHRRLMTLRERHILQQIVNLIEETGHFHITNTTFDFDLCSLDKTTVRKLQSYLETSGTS
T cruzi inh – T. cruzi replication inhibition | AID 1885 | inhibition, % (no concentration beside the values) | T. cruzi beta-gal in NIH3T3, luminescence, 90 h | hit rate 1.4% among 300,000;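 active = mean inhibition across valid replicates above about 55%, limit read from the data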;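 also: signal also drops with host cell toxicity which is not excluded here; 0% = plate median of DMSO wells and 100% = zero luminescence signal; higher percent means less beta-gal luminescence so fewer parasites; stock transfer was 50 nL into about 50 µL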
Ecoli growth – E. coli growth inhibition | OD600 absorbance (concentration not given with the values) | Escherichia coli growth, OD600, 23 h; stronger effect = lower value | hit rate 0.21% among 330,000 | AID 1053175;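 active = OD600 absorbance below the run mean of sample wells minus 3.6 SD, in any replicate, cut at about 0.56 in these data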;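 also: stock transfer was 300 nL into about 60 µL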
A1 inh – inhibitors of the anti-apoptotic protein A1, read as caspase activation | MEF A1-2A-BIM cells, Caspase-Glo 3/7 luminescence, 3 h; percent of clofoctol response, vehicle zero | caspase activation, % (concentration not given with the values) | hit rate 0.066% among 330,000 | AID 2462;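 active = over half of replicate activation scores above 10%, or exactly half above 10 with the replicate mean above 10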;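 also: wells of about 30 µL received 50 nL stock; many hits fall short of the cut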
UCH37 DUB inh – human UCH37 deubiquitinating enzyme inhibition; Q9Y5K5; purified proteasome/UCH37, Ub-AMC cleavage fluorescence; inhibition, % (no concentration beside the values); hit rate 0.33% among 330,000; AID 588478;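 active = mean of two replicates above 20%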;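 also: 0% = compound-free wells with enzyme and 100% = wells lacking proteasome; stock transfer was 100 nL into about 20 µL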
Target sequence (Q9Y5K5 whole entry, looked up): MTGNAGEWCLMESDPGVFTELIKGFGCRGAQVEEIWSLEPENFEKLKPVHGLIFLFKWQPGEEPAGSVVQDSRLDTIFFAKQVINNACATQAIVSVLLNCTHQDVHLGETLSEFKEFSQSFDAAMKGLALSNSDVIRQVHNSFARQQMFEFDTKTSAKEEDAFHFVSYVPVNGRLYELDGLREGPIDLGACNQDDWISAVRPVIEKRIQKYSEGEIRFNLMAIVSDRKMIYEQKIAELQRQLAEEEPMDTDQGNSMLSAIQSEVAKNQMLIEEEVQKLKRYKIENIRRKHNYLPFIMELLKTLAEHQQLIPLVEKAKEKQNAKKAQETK
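Assay system: Proteasome-bound UCH37. Buffer or medium: pH 7.4 Tris-HCl (50 mM) with ovalbumin, ATP-MgCl2, DTT. Incubation: 30 min preincubation with enzyme, 25 min cleavage at room temperature. Measured by: fluorescence, ex 355 nm, em 460 nm. Read-out basis: percent inhibition. Control set: wells without proteasome as full block, compound-free enzyme plus substrate as uninhibited.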
FGF22 binding – shifts melting point of recombinant human FGF22; Q9HCT0; recombinant FGF22 thermal shift, SYPRO orange fluorescence; percent of sucrose octasulfate shift, DMSO zero; calls only at 9.99 µM; hit rate 1.5% among 340,000; AID 651658;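 active = melting point raised past a set limit in the mean and every replicate; three in four hits are not shown here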
Target sequence (Q9HCT0 whole entry, looked up): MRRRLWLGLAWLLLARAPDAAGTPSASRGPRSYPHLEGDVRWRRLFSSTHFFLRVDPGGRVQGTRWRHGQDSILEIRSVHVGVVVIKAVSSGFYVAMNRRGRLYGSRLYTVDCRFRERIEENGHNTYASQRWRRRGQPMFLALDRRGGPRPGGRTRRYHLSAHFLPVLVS
Ecoli rRNA inh – selective bacterial rRNA inhibition in E. coli. hit rate 1.6% among 350,000. GFP signal change (wild-type ribosome), % (test concentration not listed). E. coli WT GFP vs humanized-ribosome RFP mutants, fluorescence, 24 h; stronger effect = lower value; DMSO median 0, no signal -100. AID 720706;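 active = significant combined selectivity score with lowered wild-type GFP, culture density cut under 30%, mutant RFP and density less affected; inactive = any of these conditions unmet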; also: one replicate is shown; some compounds called inactive have numbers as strong as hits
Beta cell apopt – blocks beta cell apoptosis; protection from apoptosis, % (test concentration not listed); AID 435005; hit rate 0.8% among 300,000; INS-1E cytokine-induced death, ATP luminescence, 48 h; percent of positive-control rescue, neutral wells zero;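 active = all replicates at 75% or more, or half of them and the mean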;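 also: 0% = cytokine-treated negative control wells and 100% = positive control rescue; higher means more ATP so stronger rescue from cytokine killing; wells of about 40 µL received 100 nL stock; the first replicate is given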
Ecoli rRNA inh OD600 – second read-out of Ecoli rRNA inh, no call of its own (marks repeat the call); OD600 change, %; measured here: OD600 growth;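 optical density of the mix in the first replicate; 0 = DMSO median and -100 = no signal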
Ecoli rRNA inh RFP – also measured in Ecoli rRNA inh; calls as there; RFP signal change, %; measured here: RFP humanized mutant strains;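 first replicate; 0 = DMSO median and -100 = no signal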
* marks the source's active call; other numbers are inactive results; i = inactive; . = no result given; & = joins results of further samples. These rows are one share of the data; rates above refer to the full screens.

SMILES | AF4-AF9 inh | T cruzi inh | Ecoli growth | A1 inh | UCH37 DUB inh | FGF22 binding | Ecoli rRNA inh | Ecoli rRNA inh OD600 | Ecoli rRNA inh RFP | Beta cell apopt
COc1ccccc1-n1c(SCC(N)=O)nnc1-c1ccc(S(=O)(=O)N2CCCCC2)cc1 | . | 11 | 0.68 | -1.2 | 2.5 | . | . | . | . | 2
COc1ccc(NC(=O)C2CCN(S(=O)(=O)c3cccs3)CC2)cc1OC | -0.9 | . | 0.69 | 1.9 | 0.1 | i | -8 | -7 | -7.8 | 0
O=C(NCC1CCCO1)c1ccccc1NS(=O)(=O)c1cccs1 (stereo not given) | -1.7 | -3 | 0.67 | 0.8 | -0.6 | i | 4 | 5 | 2.1 | -3
O=C(CCCc1cccs1)NCCc1c[nH]c2ccccc12 | 0.8 | -12 | 0.65 | 1.1 | 2.7 | i | 5 | 11 | 0.1 | 0
COc1ccc(CN2CCc3ccc(NC(=O)CCc4ccccc4OC)cc3C2)c(O)c1 | 2.5 | 3 | 0.67 | -0.4 | 5.0 | i | -4 | -15 | 4.9 | -5
O=c1c2c3c(sc2nc2sc(CN4CCCCC4)cn12)CCCC3 | . | -2 | 0.67 | 1.2 | 0.8 | . | . | . | . | 1
C[C@@H]1C[C@H]2[C@@H]3CCC4=CC(=O)C=C[C@]4(C)[C@@]3(F)[C@@H](O)C[C@]2(C)[C@@]1(O)C(=O)CO | -21 | -7 | 0.66 | 0.7&0.2 | 3.3&0.5 | i | . | . | . | -3&-8
C=CCn1c2ccccc2c2nnc(SCN3C(=O)c4ccccc4C3=O)nc21 | . | 5 | 0.72 | -0.8 | 4.0 | . | . | . | . | 5
CNS(=O)(=O)c1cccc(C(=O)OCC(=O)N(Cc2ccccc2)C(C)(C)C)c1 | 0.3 | -19 | 0.68 | 0.7 | 3.8 | i | -22 | -26 | -10 | -3
O=S(=O)(NCCOc1ccccc1F)c1cccc(Br)c1 | 3.4 | . | 0.69 | 0.0 | 1.9 | i | -56 | -74 | -19 | -6
O=C(O)c1ncn(Cc2ccccc2)c1C(=O)O | . | -4 | 0.74 | 0.5 | 1.4 | . | . | . | . | -5
Cc1ccc2cccnc2c1N | 4.8 | -14 | 0.69 | -1.3 | 0.3 | i | . | . | . | -6

Ordered by the number under AF4-AF9 inh (descending): some entries from above
SMILES,AF4-AF9 inh
COc1ccc(CN2CCc3ccc(NC(=O)CCc4ccccc4OC)cc3C2)c(O)c1,2.5
O=C(NCC1CCCO1)c1ccccc1NS(=O)(=O)c1cccs1 (stereo not given),-1.7
C[C@@H]1C[C@H]2[C@@H]3CCC4=CC(=O)C=C[C@]4(C)[C@@]3(F)[C@@H](O)C[C@]2(C)[C@@]1(O)C(=O)CO,-21

(cont.)
SMILES | AF4-AF9 inh | T cruzi inh | Ecoli growth | A1 inh | UCH37 DUB inh | FGF22 binding | Ecoli rRNA inh | Ecoli rRNA inh OD600 | Ecoli rRNA inh RFP | Beta cell apopt
N#Cc1ccc(NC2c3ccccc3CC2O)cc1 (stereo not given) | -1.8 | . | 0.67 | . | 0.7 | i | 5 | -18 | -6.6 | .
NC(=O)c1cc2cc(Cl)ccc2oc1=O | . | 1 | 0.66 | -0.2 | -22 | . | . | . | . | -2
CCOC(=O)c1sc(-c2cccs2)nc1C | 2.2 | -2 | 0.72 | -1.4 | -62 | i | 4 | 8 | -1.3 | 1
CCc1ccc(CN2CCN(S(=O)(=O)Cc3ccccc3)CC2)cc1 | . | 10 | 0.7 | . | 3.7 | . | . | . | . | -3
Cc1nnc(SCC(=O)N2CCCC2)n(N)c1=O | -0.1 | -3 | 0.71 | 1.1 | 2.5 | . | 21 | 12 | 1.4 | -2
C=C(C)[C@H]1CC=C(C)C(=O)C1 | . | . | 0.66 | -0.3 | 1.1 | i | 6 | 6 | 0.9 | -4
O=C(c1cc(-c2ccco2)on1)N1CCc2ccccc2C1 | . | -13 | 0.65 | -1.1 | 0.4 | . | . | . | . | -4
COc1cc(NC(=S)NCCc2ccccc2)c(OC)cc1NC(=O)CC(C)C | 4.9 | -2 | 0.65 | 0.8 | 1.3 | i | 5 | 7 | 5.5 | -5
CNc1nc(N(C)C)nc(N(C)C)n1 | -1.9 | -6 | 0.65 | -0.4 | 2.4 | i | . | . | . | .
CCN(CC)CCCN1C=C2C(=O)C(C)(OC(=O)CCC(=O)OC)C(=O)C(Br)=C2C=C1c1ccc(OC)cc1 (stereo not given) | -3.0 | -1 | . | 0.6 | . | i | 5 | -1 | 15 | -7
O=c1c(-c2ccc(Br)cc2)[n+]([O-])c2ccccc2n1OCc1ccccn1 | 1.9 | -2 | 0.69 | 0.5 | -2.4 | . | 9 | 14 | -2.0 | .
O=[N+]([O-])c1ccc(N/N=C/c2cccc(O)c2O)c(S(=O)(=O)N2CCOCC2)c1 | 1.9 | -5 | . | 1.4 | . | i | 4 | 3 | -0.3 | 13
N#Cc1cc(Oc2ccc3ccccc3c2)c(-n2nnc3ccccc32)cc1C#N | . | . | 0.7 | 1.1 | -3.9 | . | . | . | . | 9
C=CCn1cccc(C(=O)Nc2ccc(SC)cc2)c1=O | 1.8 | 1 | 0.63 | -1.9 | 8.8 | i | -15 | -12 | -8.4 | -6
O=c1c2c(nc3n1CCCCC3)sc1c(O)cccc12 | . | . | 0.72 | -5.6 | 0.6 | . | . | . | . | 6
CCCCCSc1nnc(-c2ccccc2N)c(=O)[nH]1 | 1.4 | 7 | 0.71 | -0.4 | 2.3 | i | -6 | -1 | 1.8 | -4
CCOc1ccc(NC(=O)CCN2CCN(c3ccccc3OC)CC2)cc1 | . | . | 0.67 | 0.5 | 1.7 | . | . | . | . | -3
CC1(C)CC(=O)C=C(Nc2ccc(F)c(Cl)c2)C1 | 1.4 | 0 | 0.66 | -0.1 | 5.8 | i | 8 | 4 | -3.9 | -1
COc1ccc2cc(S(=O)(=O)N3CCCCC3)ccc2c1S(=O)(=O)N1CCCCC1 | . | 14 | 0.76 | 0.5 | -0.2 | . | . | . | . | 13
CCCOc1ccccc1C1CC(=O)Nc2cc3c(cc21)OCCO3 (stereo not given) | . | -5 | 0.75 | -0.1 | 4.1 | . | . | . | . | 26
CC1CCCCC1NC(=O)CSc1nnc(CN2CCOCC2)n1C (stereo not given) | . | -3 | 0.69 | 0.4 | -0.1 | . | . | . | . | 2
CCOC(=O)C1CCN(C(=O)Cn2ncc3c([nH]c4ccccc43)c2=O)CC1 | 1.6 | -11 | 0.66 | 0.0 | 0.3 | i | 0 | 10 | 0.4 | .
COC(=O)c1c(C(=O)OC)c2cc(C)ccn2c1Cl | . | -12 | 0.68 | 0.3 | -13 | . | . | . | . | -8
Nc1nn2cc(-c3ccc(Br)cc3)nc2c2ccccc12 | -14 | 18 | . | -3.0 | . | i | -53 | -70 | -24 | 8
COC1CCCN(Cc2c(C(=O)N3CCN(C4CCCCC4)CC3)nc3ccccn23)C1 (stereo not given) | -2.0 | 48 | 0.72 | -0.4 | -19 | i | 8 | 12 | 0.4 | -2
COc1ccc2oc(=Nc3ccccc3)c(-c3nc4ccccc4[nH]3)cc2c1 | . | -3 | 0.71 | -4.9 | -1.0 | . | . | . | . | 25
C/C(=N/Nc1nc(C)cc(C)n1)c1ccc(Br)cc1 | 1.0 | -15 | . | 1.1 | . | i | 1 | 8 | -0.2 | 72
COc1cccc(NC(=O)CN(C)C(=O)CC2CC3CCC2C3)c1 (stereo not given) | -0.4 | 1 | 0.69 | -0.7 | 0.7 | i | -1 | -7 | -1.7 | 2
O=S(=O)(c1ccc(NC(=S)NC2CCCC2)cc1)N1CCCC1 | 1.8 | 20 | 0.66 | 1.8 | 2.6 | i | -27 | -35 | -2.6 | .
COc1ccc(NC(=O)CSc2nnc(CCC(=O)O)c(=O)n2N)cc1 | -1.5 | -8 | 0.66 | 0.2 | 1.3 | i | 9 | 7 | 1.8 | -3
O=C(NCc1ccncc1)c1cc(C(=O)C2CC2)c[nH]1 | -1.1 | 2 | 0.71 | 0.8 | 1.0 | i | 10 | 12 | 1.0 | 0
CCCN1Cc2cccc(C(=O)Nc3ccc4c(c3)OCCO4)c2C1=O | 1.5 | -3 | 0.73 | 0.3 | 1.7 | i | 11 | 18 | -2.4 | -3
CCOC(=O)N1CCN(CC(O)c2ccc3cc[nH]c3c2)CC1 (stereo not given) | 1.7 | -20 | 0.79 | 0.3 | -0.1 | i | 3 | 10 | -1.1 | -1
Cc1cc2nc(C)c3c(n2n1)CCC3 | -0.8 | 1 | 0.66 | -0.7 | -13 | i | 6 | -2 | -8.6 | 0
COCCOC(=O)C1=C(C)N=C2SCCC(=O)N2C1/C=C/c1ccccc1 (stereo not given) | . | 3 | 0.71 | -0.5 | 2.5 | . | . | . | . | 1
O=C(CSc1nnc(CNC(=O)c2cccc(C(F)(F)F)c2)o1)NC1CCCC1 | -2.6 | 6 | 0.65 | -1.4 | -0.6 | i | 0 | 2 | -1.7 | -8
O=C(N/C(=C/c1ccc([N+](=O)[O-])cc1)C(=O)N1CCOCC1)c1ccco1 | -1.0 | -15 | 0.71 | -0.7 | 15 | i | . | . | . | 1
CCOC(=O)c1n[nH]c(=O)c2ccccc12 | -3.5 | -3 | 0.68 | -0.1 | 2.3 | i | 11 | 12 | 0.5 | -5
CCOC(=O)/C=C/c1ccccc1S(=O)(=O)NC(C)(C)C | -1.0 | -18 | . | 1.4 | 0.1 | i | -11 | -11 | 0.6 | -7
COC(=O)N/N=C/c1cn(CCOc2ccccc2)c2ccccc12 | 4.3 | 9 | . | -0.4 | . | i | -17 | -10 | -2.9 | .
COc1ccc(CCNC(=O)CCS(=O)(=O)c2ccc3c(c2)NC(=O)CS3)cc1OC | -4.0 | -1 | 0.71 | 1.0 | 4.0 | i | 9 | 17 | -4.0 | -5
CC(C)(C)CN1C(N)=NC[C@@H]1Cc1ccc(O)cc1 | 0.3 | -11 | . | 0.3 | -1.1 | i | 16 | 11 | -4.8 | 6
CC(C)C(C)(C#N)NC(=O)CSc1nc2scc(-c3ccccc3)c2c(=O)[nH]1 (stereo not given) | -8.7 | 8 | 0.69 | -0.4 | 3.1 | i | -7 | -2 | -11 | -3
Cc1nn(CC(=O)N(C)C)c(C)c1S(=O)(=O)N1CCOCC1 | -1.0 | . | 0.68 | 1.7 | 0.5 | i | 4 | 1 | -1.3 | -5
CN(C)S(=O)(=O)c1ccc(NC(=S)NC(=O)Cc2ccccc2)cc1 | -1.0 | -3 | 0.67 | -0.2 | 1.9 | i | 20 | 11 | -0.4 | -1
CCCCC1=CC2=CC(=O)C(C)(OC(=O)CC)C(=O)C2=CN1Cc1ccccc1 (stereo not given) | -1.3 | 14 | 0.69 | -0.1 | 3.2 | i | 3 | 2 | 7.9 | -7
C[C@@H]1C(=O)O[C@H]2[C@H]1CC[C@@]1(C)C(=O)C=C[C@@](C)(O)[C@H]21 | -0.6 | -11 | . | -0.9 | 0.8 | i | 6 | 14 | -1.0 | 2
